Bioassay records from PubChem.
AID504770: E. coli YBA685 growth inhibition, screen for V. cholerae RctB inhibitors; 0.27% of 130,000 active; z-score (no concentration beside the values); AID 504770; E. coli YBA685 rctB-dependent plasmid, OD600 growth, 3 h; hits give low values;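 active means z-score under -2 on both plates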;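 further: wells of about 30 µL received 100 nL stock; score is relative to mean and SD of the test wells; the first replicate is given; strong numbers were not always called active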
CapD inh: inhibitors of Bacillus anthracis CapD enzyme; AID 492967; purified CapD enzyme, fluorescence intensity read-out; hits give low values; some hits fall short of the stated cut; z-score (no concentration beside the values); 0.23% of 140,000 active;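 active means z-score under -4 in either of two replicates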;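 further: stock transfer was 100 nL into about 40 µL; score is relative to mean and spread of the plate; one replicate is shown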
An asterisk follows results filed as active; x = no result given. Random draw from the library. About 0.37% of those tested had a hit in this group.

The line under a structure holds: CapD inh, AID504770
c1ccc(-c2[nH]ncc2-c2ccncn2)cc1
→ -0.22, x
O=C(OC1CCS(=O)(=O)c2sccc21)c1ccc(Cl)cc1Cl (stereo not given)
→ -0.29, x
CCCCn1c(=O)c(CCC(=O)O)nc2ccccc21
→ 61, 0
COc1cccc(CSc2nc3ccncc3n2CC(=O)Nc2ccc(N(C)C)cc2)c1
→ -0.29, 0.1
CCCCC[C@H]1C(=O)O[C@H](C)[C@H](NC(=O)c2cccc(NC=O)c2O)C(=O)O[C@@H](C)[C@@H]1OC(=O)CC(C)C
→ -0.44, x
Cc1cc(C)nc(SCC(=O)N2CCc3cc(F)ccc32)n1
→ 0.38, x
COc1ccc(N2CCN(C(=O)CCNC(C)=O)CC2)cc1
→ x, 0.1
CN(C)/C=C/C(=N)SCc1c(F)cccc1Cl
→ -3.8*, -1.2
COc1ccc(OC)c(-n2c(N)c(C#N)c3nc4ccccc4nc32)c1
→ x, -2.1*
CCOC(=O)c1ccc2nc(NC(=O)COC(=O)CCC(=O)Nc3ccccc3C(=O)OC)sc2c1
→ 0.22, x
Cc1ccccc1CN1CCc2c(OCC(=O)N3CCOCC3)cccc2C1=O
→ -0.12, 0.5
O=C(CCCn1sc2ccccc2c1=O)N1CCc2ccccc21
→ -1.5, 1.3
CCOc1ccc(C2(O)CN(c3ccccc3C)C3=[N+]2CCCS3)cc1 (stereo not given)
→ 0.49, x
CC(=O)N1CC(C(=O)N(CC(=O)Nc2cccc(C)c2C)CC2CCCO2)Oc2ccccc21 (stereo not given)
→ x, -1.5
Cc1cc(C(=S)N=P(N(C)C)(N(C)C)N(C)C)c(C)n1-c1ccccc1
→ x, -0.4
CCN1CC=C2C(C#N)=C(N)C(C#N)(C#N)C(c3cccc(OC)c3OC)C2C1 (stereo not given)
→ 6.2, x
CCN(CC)C(=O)Cn1cc(S(=O)(=O)CC(=O)NCc2ccc(F)cc2)c2ccccc21
→ 0.99, 2
O=c1nc(-c2ccc(Cl)cc2)nc(-c2ccc(Cl)cc2)[nH]1
→ 0.025, 0
CCn1c(Cc2cccn2C)nnc1SCC(=O)c1ccc(C)cc1
→ -1.2, -1
CCOC(=O)c1nc(Nc2ccc(OC)cc2Cl)c2ccccc2n1
→ -0.54, x
COc1ccc(Cl)cc1S(=O)(=O)NC(C)C
→ 0.28, 0.55
COc1ccc(-c2noc(CN)n2)cc1OC
→ -0.03, 0.25
CC(C)(C)c1cc(O)cc(C(C)(C)C)c1CN1CCN(CCN)CC1
→ 0.96, -0.8
CC(=O)N1CCN(C(=S)NC(=O)c2ccc(F)cc2)CC1
→ x, -2.2
CCOC(=O)/C=C1\SCC(=O)N1CCOC(=O)c1cncc(Br)c1
→ x, -0.3
COC(=O)/C=C1\SC(N2N=C(c3ccco3)CC2c2ccc(OC)cc2)=NC1=O (stereo not given)
→ x, 0
Cn1c(O)c(N=Nc2nc3c(c(=O)[nH]c(=O)n3C)n2CCCOc2ccccc2)c(=O)n(C)c1=O
→ x, 0.15
C/C(Nc1ccc(Oc2ncc(C(F)(F)F)cc2Cl)cc1)=C(/C#N)C(N)=O
→ -0.38, x
O=C1CN(C(=O)COC(=O)c2cc(S(=O)(=O)N3CCOCC3)ccc2Cl)c2ccccc2N1
→ x, 1.6
CCC(Sc1nc(C)cc(=O)[nH]1)C(=O)Nc1ccccc1OC (stereo not given)
→ 0.51, 1.9

Exported bar-delimited: entries from further up
mol | CapD inh | AID504770
CC(=O)N1CCN(C(=S)NC(=O)c2ccc(F)cc2)CC1 | x | -2.2
CCn1c(Cc2cccn2C)nnc1SCC(=O)c1ccc(C)cc1 | -1.2 | -1

Additional compounds.
The line under a structure holds: CapD inh, AID504770
CSC(=NCc1c(N)cccc1F)NC#N
→ 0.2, 0.3
Cc1ccccc1COc1ccc2oc(-c3ccccc3)c(C(=O)O)c2c1
→ -0.6, 1.1
O=c1oc2ccc(Br)cc2cc1-c1nnc(Nc2cccc(C(F)(F)F)c2)s1
→ -0.065, x
O=C(c1ccccc1)N(Nc1ccccc1)c1ccccc1
→ -0.16, 0.25
O=C(Cn1cccc1)NCc1ccc(F)cc1
→ -1, 2
CCCCCCCCCCCCN1CSC(=S)N(CCCCCCCCCCCC)C1
→ 0.82, x
Cc1ccc(C(=O)CCC(=O)N2CCCCCC2)cc1
→ x, 0.25
O=C(C1CCCCN1S(=O)(=O)c1ccccc1)N1CCCC1 (stereo not given)
→ 0.12, 0.65
O=P1(NCc2ccco2)C=C(c2ccccc2)SC(c2ccccc2)=C1
→ x, -0.8
O=C(CSc1nc2ccccc2nc1N1CCOCC1)N1CCC2(CC1)OCCO2
→ -1.5, -0.5
COC(=O)CC(=O)c1cc2ccccc2oc1=O
→ x, -1.2
O=C(Nc1ccc(C(F)(F)F)cc1)c1ccc(=O)n(Cc2ccccc2)c1
→ 0.21, x
CCOC(=O)/C(=C\Nc1ccc(F)c(Cl)c1)S(=O)(=O)c1ccc(Cl)cc1
→ -0.23, -0.3
CCOc1cccc2c1OC(c1ccc(F)c(F)c1)N1N=C(c3cccc(OC)c3)CC21 (stereo not given)
→ -0.53, x
CNC(=O)c1cc(C#N)c(SCC(=O)O)nc1N
→ x, -0.75

Part of the list above in order of SMILES length, smallest number first.
The line under a structure holds: CapD inh, AID504770
CSC(=NCc1c(N)cccc1F)NC#N
→ 0.2, 0.3
COC(=O)CC(=O)c1cc2ccccc2oc1=O
→ x, -1.2
Cc1ccc(C(=O)CCC(=O)N2CCCCCC2)cc1
→ x, 0.25
O=C(CSc1nc2ccccc2nc1N1CCOCC1)N1CCC2(CC1)OCCO2
→ -1.5, -0.5
O=c1oc2ccc(Br)cc2cc1-c1nnc(Nc2cccc(C(F)(F)F)c2)s1
→ -0.065, x
CCOc1cccc2c1OC(c1ccc(F)c(F)c1)N1N=C(c3cccc(OC)c3)CC21 (stereo not given)
→ -0.53, x

One compound at a time (already shown). Screens in order: CapD inh, AID504770
COc1ccc(N2CCN(C(=O)CCNC(C)=O)CC2)cc1 in the list: x, 0.1
Cn1c(O)c(N=Nc2nc3c(c(=O)[nH]c(=O)n3C)n2CCCOc2ccccc2)c(=O)n(C)c1=O in the list: x, 0.15
CSC(=NCc1c(N)cccc1F)NC#N in the list: 0.2, 0.3

Going on with the list:
The line under a structure holds: CapD inh, AID504770
Cc1nc2ccc(N=Cc3ccccc3O)cc2s1
→ -1.2, -1.1
CCOc1ccc(OCC)c(CC2OC(c3ccccc3)=NC2=O)c1 (stereo not given)
→ -1.2, 0.6
O=C(Nc1ccc(N2CCCCC2)cc1)c1cccnc1
→ x, 0.7
O=C(Oc1ccccc1)C1CCCN(C2=NS(=O)(=O)c3ccccc32)C1 (stereo not given)
→ x, -0.8
Cc1cc(C)c(-n2nnnc2SCC(=O)Nc2ccccc2Cl)c(C)c1
→ 0.64, x
CCCc1nc(=S)c2ccccc2[nH]1
→ x, -0.45
CCC(C)NC(=O)c1cc(Nc2ccc(C(C)C)cc2)nc2ccccc12 (stereo not given)
→ 0.41, 1.2
COc1ccc(OC)c(Nc2nc(-c3c(C)nc4sccn34)cs2)c1
→ 0.14, 0.85
Cc1cc(C)cc(CC(c2nc3ccccc3[nH]2)C(C)c2nc3ccccc3[nH]2)c1 (stereo not given)
→ 1.8, 0.8
Cc1ccc2c(c1)/C(=N/OS(=O)(=O)c1ccc(Cl)cc1)CCS2
→ 0.14, x
O=C(/C=C/c1ccccc1)N1C(=O)OCC1c1ccccc1 (stereo not given)
→ 0.1, 0.55
Cc1ccc(-c2nc3ncccc3o2)cc1NC(=O)c1ccc(C#N)cc1F
→ -0.28, x
Cn1c(=O)cc(N2CCN(C(=O)c3ccccc3)CC2)[nH]c1=O
→ -0.64, x
O=C(Nc1ccc(Cl)c(C(F)(F)F)c1)C(Cc1ccccc1)N1C(=O)C2CCCCC2C1=O (stereo not given)
→ -0.45, x
CC1=C(CC(=O)NNC(=O)c2ccc(CSc3ccc(C(F)(F)F)cn3)o2)c2cc(F)ccc2/C1=C\c1ccc(S(C)=O)cc1 (stereo not given)
→ 0.06, x
CC(C)(C)c1cc(-c2ccccc2)c(C#N)c(N)n1
→ 12, -0.35
CCOC(=O)c1sc(-c2ccccc2)nc1CSc1nccn1C
→ -1.7, 1.1
CS(=O)(=O)N(Cc1ccccc1)Cc1ccccc1
→ -0.1, 0.05
CCCCOc1ccc(-c2csc(-c3cc4ccccc4oc3=O)n2)cc1
→ -0.84, x
CC1(O)N(CC(=O)O)C(=O)OC12CCCCC2 (stereo not given)
→ 0.53, -0.2
COc1cccc(C2C3=C(CCCC3=O)N(c3cccc(Br)c3)C(=N)/C2=C(/O)c2ccccc2)c1OC (stereo not given)
→ -0.04, x
C=C(C)C1CC=C(CN2CC(C)OC(C)C2)CC1 (stereo not given)
→ 0.075, -0.1
O=C(O)c1cc2c3c(c1)C1C=CCC1CN3CC1CC=CC21 (stereo not given)
→ 5.4, x
O=C(Nc1ccccc1)c1cnc2n(c1=O)CCS2
→ x, 0.1
O=C(COC(=O)c1ccc(Br)cc1)Nc1cccc2ccccc12
→ -0.85, -1.4
O=c1oc2cc(O)ccc2cc1-c1nc(-c2cccs2)cs1
→ 0.48, x
CCCCN1C(=O)C2C(c3ccccc3O)NC(C)(C(=O)O)C2C1=O (stereo not given)
→ -0.2, -0.85
O=C(Oc1ccc(Cl)c2cccnc12)c1ccncc1
→ 0.5, 0.15
Cc1ccc(NC(=O)c2cccc(Oc3ccc(C#N)cc3)c2)cc1
→ 3.6, -0.1
Cc1ccc2c(c1)C1OCCC1C(c1cccs1)N2 (stereo not given)
→ x, -0.3
N#CCSc1nc2cc(C(=O)N3CCC(C(N)=O)CC3)ccc2c2nc3ccccc3n12
→ 0.7, x
CCOC(=O)C1=CN(Cc2ccc(OC)c(OC)c2)C=C(C(=O)OCC)C1c1ccc(O)c(OC)c1
→ 21, x
CCOc1ccccc1N1CCN(C(=O)CC(C)(C)C)CC1
→ 0.85, 0.05
CCNC(=O)c1cc2c(=O)n3ccccc3nc2n(C(C)C)c1=N
→ 74, -0.85
COc1c(NC(=O)N(C)C)csc1Cl
→ 0.04, 1.6
CC1(C)C2CCC1(C)C(NC(=O)c1ccco1)C2 (stereo not given)
→ 0.46, 0.4
CC1=C(C(=O)Nc2ccc(Br)cn2)C(c2cccc(Cl)c2)C2=C(CC(C)(C)CC2=O)N1 (stereo not given)
→ 37, x
O=C(NC1CCCC1)C1c2ccccc2Oc2ccccc21
→ 0.17, 0.4
Cc1ccccc1NC(=O)C12CC3CCC1(C)C3(C)CO2 (stereo not given)
→ -0.18, x
COC(=O)COc1ccc(S(=O)(=O)Nc2ccc(F)c(Cl)c2)cc1
→ 0.69, 0.85
CN(C)C1(CNC(=O)CNC(=O)c2ccccc2Br)CCCCC1
→ x, 1.3
Cc1ccc(S(=O)(=O)CCC(=O)c2ccc(O)cc2O)cc1
→ -0.12, -1.6
CC(C)C(=O)N1CC(=O)Nc2ccc(Cl)cc2C1c1ccccc1 (stereo not given)
→ 1.1, -0.3
C=C1c2ccccc2N=C(SCC(=O)Nc2ccc(OC(F)F)cc2)N1C
→ x, -0.3
CCC1(CC)OC(c2cccnc2)Nc2ccccc21 (stereo not given)
→ -0.48, -1.1
O=C(Nc1nnc(-c2ccncc2)s1)C1c2ccccc2Oc2ccccc21
→ 5.5, -0.65
Cc1cccc(COn2cccc(C(=O)Nc3ccc(Cl)cc3C(F)(F)F)c2=O)c1
→ 0.71, 1.9
O=C(c1ccc(Sc2ccc(Cl)cc2)c([N+](=O)[O-])c1)N1CCCCC1
→ 0.24, x
Nc1nc(N)c2[nH]c(C3CCCCC3)nc2n1
→ x, -1
COc1ccc(/C=c2/[nH]/c(=C/C(=O)c3ccccc3)c(=O)[nH]c2=O)cc1OC
→ -1.2, 0.65
COc1cc2c(cc1OC)CN(C(=O)/C=C/c1ccc(F)cc1)CC2
→ x, -0.9
COC(=O)C1CCN1CC1CCCO1 (stereo not given)
→ x, -0.65
CCN(CC)C(=O)Oc1c(Br)cc(Br)c2ccc(C)nc12
→ 4.1, 1.8
CC1CC(C)CN(C(=O)CSc2nc3ccsc3c(=O)n2Cc2ccccn2)C1 (stereo not given)
→ 0.065, 0.35
CCc1nc2sc3c(c2c(=O)[nH]1)CCCC3
→ -0.21, -0.75
O=C(CN1CCOCC1)Nc1scc2c1c(=O)oc1ccccc12
→ 1.5, -1
CCc1cccc(C)c1NC(=O)c1cc(S(=O)(=O)NC2CCCC2)ccc1F
→ -1.2, x
CS(=O)(=O)n1c(=O)sc2ccccc21
→ x, -0.8
COc1ccc(CSC(=N)N)cc1Cl
→ x, -1.1
CCOC(=O)c1[nH]c(C)c(C(=O)N2CCc3ccccc3C2)c1C
→ x, -0.1

(further entries)
The line under a structure holds: CapD inh, AID504770
O=C(COc1ncn(-c2ccccc2)n1)N/N=C/c1cc2ccccc2o1
→ 0.03, x
C/C=C/c1ccc(Oc2nnc(C)c3ccccc23)c(OC)c1
→ 0.4, -0.1
CCn1c(=O)c(C(=O)CSc2nnc(NC3CC3)s2)c(N)n(Cc2ccccc2)c1=O
→ x, -0.15
COC(=O)C1=C(C(=O)OC)SC(=C2C(=S)C(C)(C)N(C(=O)C(Cc3ccccc3)N3C(=O)c4ccccc4C3=O)c3cc(C)ccc32)S1 (stereo not given)
→ -0.33, x
Cc1ccc(S(=O)(=O)/N=S2/CCCSC2)cc1 (stereo not given)
→ -0.21, x
CC(C(=O)O)C(C(=O)O)C(C)c1ccccc1 (stereo not given)
→ -0.15, -0.7
